Screens deposited in PubChem by Broad Institute.
Ecoli rRNA inh – selective bacterial rRNA inhibition in E. coli; E. coli WT GFP vs humanized-ribosome RFP mutants, fluorescence, 24 h; hits give low values; DMSO median 0, no signal -100; GFP signal change (wild-type ribosome), % (concentration not given with the values); actives 1.6% (n = 350,000); AID 720706;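 active means significant combined selectivity score with lowered wild-type GFP, culture density cut under 30%, mutant RFP and density less affected; inactive means any of these conditions unmet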; further: one replicate is shown; some compounds called inactive have numbers as strong as hits
Ecoli rRNA inh OD600 – second read-out of Ecoli rRNA inh, no call of its own (marks repeat the call); OD600 change, %; measured here: OD600 growth;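 optical density of the mix in the first replicate; 0 = DMSO median and -100 = no signal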
Ecoli rRNA inh RFP – recorded beside Ecoli rRNA inh, whose call it bears; RFP signal change, %; measured here: RFP humanized mutant strains;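 first replicate; 0 = DMSO median and -100 = no signal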
The depositor's hits bear a star; & = joins results of further samples. This is a subset; count on the stated rates, not on these rows.

SMILES	Ecoli rRNA inh	Ecoli rRNA inh OD600	Ecoli rRNA inh RFP
COc1ccc(NC(=O)Nc2ccc3c(c2)C(=O)N([C@H](C)CO)C[C@@H](C)[C@@H](CN(C)C(=O)Nc2ccc(OC)cc2)OCCCC[C@@H](C)O3)cc1	5	-3	-0.6
C[C@@H]1CCCCO[C@H](CN(C)Cc2ccncc2)[C@@H](C)CN([C@@H](C)CO)C(=O)c2cc(NC(=O)CCCN(C)C)ccc2O1	7	9	-2.0
Cc1ccc(S(=O)(=O)Nc2ccc3c(c2)C(=O)N([C@@H](C)CO)C[C@@H](C)[C@H](CN(C)Cc2ccc(C(=O)O)cc2)OCCCC[C@@H](C)O3)cc1	2	6	-1.3
CCS(=O)(=O)N1CC(=O)N2[C@H](C1)[C@@H](c1ccc(C#Cc3ccc(F)cc3)cc1)[C@@H]2CO	-27	-56	8.0
C[C@@H]1CCCCO[C@@H](CN(C)Cc2ccc(C(=O)O)cc2)[C@@H](C)CN([C@H](C)CO)C(=O)c2cc(N(C)C)ccc2O1	3	3	-0.6
CO[C@@H]1[C@H](O)CC[C@]2(O)CN(c3ccccc3)[C@](C)([C@H](O)CC=C(C)C)[C@@H]12	10	16	3.3
CCC(=O)N(C)C[C@H]1[C@@H](c2ccc(-c3cccnc3)cc2)[C@@H](CO)N1C(C)=O	5	4	-3.0
CC(=O)NC[C@H]1[C@@H](c2ccc(C#Cc3ccccc3F)cc2)[C@@H](CO)N1C(C)=O	-2	-4	2.2
COc1cccc(-c2ccc3c(c2)[C@H]2[C@H](CCN2C(=O)C2CCCC2)[C@@H](CO)N3)c1	1	-44	26
Cc1ccc(-c2ccc([C@@H]3[C@@H](CO)N4C(=O)CN(C(=O)Cc5ccccn5)C[C@H]34)cc2)cc1	-1	7	1.7
C[C@H](CO)N1C[C@H](C)[C@@H](CN(C)Cc2ccccc2)OCCCC[C@H](C)Oc2ccc(NS(=O)(=O)c3ccc(Cl)cc3)cc2C1=O	-2	-49	29
CC(C)NC(=O)N(C)C[C@@H]1Oc2ccc(NS(=O)(=O)c3cccs3)cc2C(=O)N([C@@H](C)CO)C[C@H]1C	4	9	2.0
Cc1ccc(CN(C)C[C@H]2OCc3cn(nn3)CCCC(=O)N([C@H](C)CO)C[C@@H]2C)cc1	1	2	-0.1
CCCC(=O)N1CC2(CCN(CC3CCCC3)CC2)c2c([nH]c3cc(OC)ccc23)[C@@H]1CO	2	5	-1.4
O=C(C1CCOCC1)N1CC(=O)N2[C@H](C1)[C@@H](c1ccc(-c3ccccc3F)cc1)[C@@H]2CO	3	-11	2.7
C[C@@H]1CN([C@H](C)CO)C(=O)CCCn2cc(nn2)CO[C@@H]1CN(C)C(=O)Nc1cccc2ccccc12	-1	1	0.1
CCCC#Cc1ccc([C@H]2[C@@H](CO)N3C(=O)CN(C(=O)c4cccnc4)C[C@@H]23)cc1	-2	-5	1.8
COc1ccc2c3c(n(C)c2c1)[C@@H](CO)N(Cc1ccccc1F)CC31CN(CC2CC2)C1	3	7	4.7
COc1ccc(S(=O)(=O)Nc2ccc3c(c2)C(=O)N([C@H](C)CO)C[C@H](C)[C@@H](CN(C)S(=O)(=O)c2ccccc2)OCCCC[C@H](C)O3)cc1	-4	1	-2.8
CCCC#Cc1ccc2c(c1)[C@H]1[C@H](CCN1Cc1ccccc1F)[C@@H](CO)N2	-5	8	6.2
CCC(=O)N(CC)C[C@@H]1[C@@H](c2ccc(-c3ccccc3)cc2)[C@@H](CO)N1C(C)=O	-2	-3	1.4
CO[C@H]1CN(C)C(=O)c2ccc(NC(C)=O)cc2OC[C@@H](C)N(C(=O)C2CCC2)C[C@@H]1C	0	4	-1.7
Cc1ccccc1S(=O)(=O)N1CC(=O)N2[C@H](CO)[C@@H](c3ccc(C#CC4CC4)cc3)[C@H]2C1	-15	-54	24
C/C=C/c1ccc2c(c1)O[C@@H](CN(C)C(=O)Nc1ccc(F)cc1)[C@H](C)CN([C@@H](C)CO)S2(=O)=O	2	-8	0.6
CCC(=O)N1[C@H](CO)[C@@H](c2ccc(C3=CCCC3)cc2)[C@@H]1CN(C)C(C)=O	0	-5	0.5
CC(=O)NC[C@@H]1[C@@H](c2ccc(-c3cccnc3)cc2)[C@@H](CO)N1C(=O)C1CCC1	-1	4	-1.5
Cc1ccc(-c2ccccc2[C@H]2[C@@H](CO)N(S(C)(=O)=O)[C@H]2C#N)cc1	-1	1	1.3
C[C@H](NC(=O)[C@H]1[C@H](CO)[C@H]2Cn3c(ccc(C4=CCCC4)c3=O)[C@@H]1N2C(=O)C1CC1)c1ccccc1	1	-2	1.5
C[C@@H]1CN([C@H](C)CO)C(=O)Cc2cc(NC(=O)Cn3cnnn3)ccc2O[C@@H]1CN(C)C	1	6	-1.0
O=C(NCCc1ccncc1)[C@@H]1[C@@H](CO)[C@@H]2Cn3c(ccc(-c4cccnc4)c3=O)[C@@H]2N1C(=O)C1CC1	3	1	-2.0

Single records, as listed above.
CC(C)NC(=O)N(C)C[C@@H]1Oc2ccc(NS(=O)(=O)c3cccs3)cc2C(=O)N([C@@H](C)CO)C[C@H]1C in the list: Ecoli rRNA inh: 4; Ecoli rRNA inh OD600: 9; Ecoli rRNA inh RFP: 2.0
COc1cccc(-c2ccc3c(c2)[C@H]2[C@H](CCN2C(=O)C2CCCC2)[C@@H](CO)N3)c1 in the list: Ecoli rRNA inh: 1; Ecoli rRNA inh OD600: -44; Ecoli rRNA inh RFP: 26

Later entries:
SMILES	Ecoli rRNA inh	Ecoli rRNA inh OD600	Ecoli rRNA inh RFP
C[C@@H]1CN([C@@H](C)CO)C(=O)c2cc(NC(=O)CCC(F)(F)F)ccc2O[C@@H](C)CCCCO[C@@H]1CN(C)Cc1ccccc1	-2	-9	-0.2
COc1ccc2c3c(n(C)c2c1)[C@@H](CO)NCC31CCN(C(=O)Nc2ccc3c(c2)OCO3)CC1	4	2	0.4
CC(=O)N(C)C[C@@H]1Oc2c(NS(C)(=O)=O)cccc2C(=O)N(C)C[C@H]1C	2	3	-0.2
CNC[C@@H]1OCCCC[C@H](C)Oc2ccc(NC(=O)Nc3cccc4ccccc34)cc2C(=O)N([C@H](C)CO)C[C@@H]1C	2	3	-1.8
COc1ccc2c3c(n(C)c2c1)[C@H](CO)N(C(=O)c1ccccc1)CC31CCN(C(=O)c2ccccc2)CC1	-4	-7	-3.5
CN1C(=O)c2cc(NC(=O)C3CCC3)ccc2OC[C@H]2O[C@@H](CC(=O)NCC3CCCCC3)CC[C@H]21	-6	-16	0.5
CCC(=O)Nc1ccc2c(c1)OC[C@@H](C)N(C(=O)COC)C[C@H](C)[C@@H](OC)CN(C)C2=O	-1	-3	-0.8
CNC[C@H]1OCCCC[C@H](C)Oc2ccc(NC(=O)Nc3c(C)noc3C)cc2C(=O)N([C@@H](C)CO)C[C@H]1C	4	6	-1.0
C[C@H](CO)N1C[C@H](C)[C@H](CN(C)Cc2ccc(-c3ccccc3)cc2)OCc2cn(nn2)CCCC1=O	0	-1	-0.9
COCC(=O)Nc1ccc2c(c1)C(=O)N(C)C[C@H](OC)[C@H](C)CN(C(=O)Cc1cccnc1)[C@@H](C)CO2	3	1	-0.2
C[C@@H]1CN([C@@H](C)CO)C(=O)c2cc(NS(=O)(=O)c3ccccc3)ccc2O[C@@H](C)CCCCO[C@@H]1CN(C)Cc1ccc2c(c1)OCO2	-6	-17	6.4
O=C(NC1CCCC1)[C@@H]1[C@@H](CO)[C@@H]2Cn3c(ccc(-c4ccccc4)c3=O)[C@H]1N2	1	2	-3.7
C/C=C/c1ccc([C@@H]2[C@H]3CN(Cc4ccccc4)CC(=O)N3[C@H]2CO)cc1	1	-2	-0.1
O=C(C1CC1)N1CC2(C1)[C@H](c1ccccc1)[C@@H](CO)N2CC1CCCC1	3	0	0.6
COc1ccc(NC(=O)N(C)C[C@@H]2Oc3c(NC(=O)Nc4ccc(C(F)(F)F)cc4)cccc3C(=O)N([C@H](C)CO)C[C@@H]2C)cc1	-1	-5	-2.2
CCCC(=O)N1CCC2(CC1)CN(Cc1ccc(Cl)cc1)[C@H](CO)c1[nH]c3cc(OC)ccc3c12	-2	-16	4.1
C[C@H]1CN(C)C(=O)Cc2cc(NS(C)(=O)=O)ccc2O[C@H]1CN(C)S(C)(=O)=O	3	3	-1.1
O=C(C[C@@H]1CC[C@@H]2[C@H](COC[C@H](O)CN2CC2CCCC2)O1)NCc1ccc(Cl)cc1	-45	-75	-4.5
COc1ccc(-c2ccc([C@H]3[C@H]4CN(C(=O)c5ccccn5)CC(=O)N4[C@H]3CO)cc2)cc1	-1	5	0.1
COc1ccc2c3c([nH]c2c1)[C@H](CO)N(Cc1cc(F)ccc1F)CC31CCN(C(=O)CN(C)C)CC1	5	14	0.4
c1cncc(CN2C[C@@H]3N[C@H](C2)C3c2ccc(-c3cccnc3)cc2)c1 (stereo partly drawn)	3	5	-9.1
CC(C)NC(=O)N1[C@@H]2CNC[C@H]1C2c1ccc(/C=C/c2ccccc2)cc1 (stereo partly drawn)	0&-2	-1&5	4.0&3.7
CCN1[C@@H]2Cn3c(ccc(-c4cccnc4)c3=O)[C@H]1[C@@H](C(=O)NC1CCCC1)[C@@H]2CO	-1	1	8.4
CCCNC(=O)N1[C@@H]2CNC[C@H]1C2c1ccc(-c2cccc(C#N)c2)cc1 (stereo partly drawn)	-1&2	0&8	-6.7&0.8
CN1C(=O)c2cc(NC(=O)Nc3ccc(Cl)cc3)ccc2OC[C@H]2O[C@H](CC(=O)O)CC[C@H]21	-3	-18	0.6
CCCC#Cc1ccc([C@H]2[C@@H](CO)N(C(C)=O)[C@H]2CNC(=O)C2CCC2)cc1	-1	0	2.5
COc1ccc2c3c(n(C)c2c1)[C@@H](CO)N(C(C)=O)CC31CN(C(=O)c2ccccc2)C1	0	-1	-4.0
O=C(Cc1cccnc1)N1CC(=O)N2[C@H](CO)[C@H](c3ccc(-c4cccc(F)c4)cc3)[C@@H]2C1	2	-1	3.4
O=C(NC[C@@H]1[C@@H](c2ccccc2)[C@H](CO)N1C(=O)C1CCC1)NC1CCCC1	-1	2	2.0
CC(=O)N1CC(=O)N2[C@@H](CO)[C@H](c3ccc(-c4ccc(C#N)cc4)cc3)[C@@H]2C1	1	7	-5.5
O=C1[C@H](Cc2ccc(C(F)(F)F)cc2)CCn2cc(nn2)COC[C@@H]2CCCCN12	-4	4	-1.6
Cc1ccccc1S(=O)(=O)N1CC(=O)N2[C@H](CO)[C@@H](c3ccc(C#CCC4CCCC4)cc3)[C@@H]2C1	5	1	-7.4
CC(=O)N1[C@H](CO)[C@H](c2ccc(C3=CCCC3)cc2)[C@@H]1CNC(=O)CN(C)C	2	1	1.6
O=C1CN(Cc2ccccc2)C[C@@H]2[C@H](c3ccc(-c4ccccc4)cc3)[C@@H](CO)N12	2	4	1.2
CCC(=O)N(C)C[C@@H]1Oc2cc(-c3cncnc3)ccc2S(=O)(=O)N([C@H](C)CO)C[C@H]1C	6	2	-2.4
CCCNC(=O)Nc1ccc2c(c1)OC[C@H](C)N(S(C)(=O)=O)C[C@H](C)[C@@H](OC)CN(C)C2=O	1	5	-0.8
CC(=O)N1[C@H](CO)[C@@H](c2ccccc2)[C@@H]1CN(CC1CCC1)C(=O)CC1CC1	3	1	-1.0
CNC[C@@H]1OCCCC[C@H](C)Oc2ccc(NC(=O)Nc3ccc(OC)cc3)cc2C(=O)N([C@@H](C)CO)C[C@H]1C	7	5	-2.8
CC(=O)Nc1ccc2c(c1)C(=O)N(C)[C@@H]1CC[C@@H](CC(=O)NCCCN3CCOCC3)O[C@@H]1CO2	1	4	-0.1
CNC[C@H]1Oc2ccccc2C(=O)N(C)C[C@@H]1C	-1	8	0.7
COc1ccc(-c2ccc([C@@H]3[C@@H](CO)N4C(=O)CN(Cc5ccc(F)cc5)C[C@@H]34)cc2)cc1	3	9	0.8
CC(C)NC(=O)N(C)C[C@@H]1OCCCC[C@@H](C)Oc2ccc(NC(=O)CCC(F)(F)F)cc2C(=O)N([C@H](C)CO)C[C@H]1C	-1	1	-2.9
COc1ccc(-c2ccc(C3[C@H]4CNC[C@@H]3N4Cc3cc(OC)cc(OC)c3)cc2)cc1 (stereo partly drawn)	2&-55	-2&-77	2.2&-7.8
C[C@H](CO)N1C[C@H](C)[C@H](CN(C)CC2CC2)OCCCC[C@H](C)Oc2ccc(NC(=O)Nc3ccc(F)cc3)cc2C1=O	-3	4	0.2
C/C=C/c1ccc([C@@H]2[C@H](CO)N(CC3CC3)C23CN(C(=O)COC)C3)cc1	-2	0	1.8
C[C@H]1CCCCO[C@@H](CN(C)Cc2ccc(C(=O)O)cc2)[C@@H](C)CN([C@@H](C)CO)C(=O)c2cc(NC(=O)Nc3ccc(F)cc3)ccc2O1	-1	5	2.9
C[C@H](CO)N1C[C@H](C)[C@@H](CN(C)C(=O)C2CCC2)Oc2ncc(Br)cc2C1=O	5	14	-0.1

Entries shown so far with a cyano group:
SMILES	Ecoli rRNA inh	Ecoli rRNA inh OD600	Ecoli rRNA inh RFP
Cc1ccc(-c2ccccc2[C@H]2[C@@H](CO)N(S(C)(=O)=O)[C@H]2C#N)cc1	-1	1	1.3
CCCNC(=O)N1[C@@H]2CNC[C@H]1C2c1ccc(-c2cccc(C#N)c2)cc1 (stereo partly drawn)	-1&2	0&8	-6.7&0.8
CC(=O)N1CC(=O)N2[C@@H](CO)[C@H](c3ccc(-c4ccc(C#N)cc4)cc3)[C@@H]2C1	1	7	-5.5
